Compound activity: PubChem, several laboratories
CSC inhib – cancer stem cell inhibition. AID 2717. 300,000 tested, 1.1% active. inhibition, % at 7.5 µM. cancer stem cell-like cells viability, luminescence;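 active means mean at 75% or more and at least half the replicates too; tested in HMLE shEcad cells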;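 further: 0% = median of negative and 100% = median of positive control wells; the first replicate is given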
PABP FP inh – blocks human PABP binding to poly(A) RNA. P11940. inhibition, % at 35 µM. 290,000 tested, 1% active. fluorescence polarization. AID 2014;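 active means 50% or more with normal probe brightness, or confirmed in later tests; about a fifth of its hits are not listed in these tables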;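 further: calls also rest on retests at 20 µM and on dose response follow-up; controls were probe without protein and protein plus probe with vehicle; some compounds called inactive have numbers as strong as hits; many hits fall short of the cut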
MT1-MMP act inh – blocks activation of human MT1-MMP; P50281; HT1080 RFP-PRO-GFP cells, GFP/RFP ratio fluorescence, overnight; percent of plate control window, DMSO zero; GFP/RFP ratio change, % at 20 µM; 360,000 tested, 0.061% active; AID 651647;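 active means GFP/RFP ratio change of at least 30% with cell ATP level not reduced by more than half and red fluorescence within 50% of control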; further: strong numbers were not always called active
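Compound: 20 µM single dose, 1% DMSO / System: HT1080 RFP-PRO-GFP cells / Controls: DMSO and RFP-L50D-GFP cell wells / Read-out basis: GFP/RFP fluorescence ratio / Schedule: overnight compound exposure at 37 °C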
eIF4H inh – inhibitors of RNA binding by human eIF4H. Q15056. eIF4H fluorescence polarization binding assay. inhibition, % at 35 µM. 290,000 tested, 0.94% active. AID 2012;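 active means 50% or more with normal probe brightness, or confirmed in later tests; about a fifth of its hits are not listed in these tables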;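 further: calls also rest on retests at 20 µM and on dose response follow-up; 0% = protein and probe with vehicle and 100% = probe without protein; strong numbers were not always called active; many hits fall short of the cut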
UUG fidelity – yeast start codon fidelity modulation; S. cerevisiae UUG-firefly luciferase reporter, luminescence/redox ratio; activity score, % at 18.7 µM; 350,000 tested, 0.13% active; AID 602363;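 active means replicate mean at a twofold rise or more, about +100% in these data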;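 further: firefly luciferase made from a UUG start codon reports start codon fidelity; reporter light over untreated wells divided by growth signal over untreated wells; some hits fall short of that in this replicate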
Rce1 inh – blocks yeast Ras-converting enzyme; Q03530; yeast membranes, quenched prenylated peptide cleavage fluorescence; calls only; 290,000 tested, 0.27% active;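 active means fall in fluorescence gain of 50% or more versus controls, with final raw signal at or below 3038400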;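 further: plate controls were neutral control wells for no effect and wells lacking membranes for full effect; tested at 10 µM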
Target sequence (Q03530 whole entry, looked up): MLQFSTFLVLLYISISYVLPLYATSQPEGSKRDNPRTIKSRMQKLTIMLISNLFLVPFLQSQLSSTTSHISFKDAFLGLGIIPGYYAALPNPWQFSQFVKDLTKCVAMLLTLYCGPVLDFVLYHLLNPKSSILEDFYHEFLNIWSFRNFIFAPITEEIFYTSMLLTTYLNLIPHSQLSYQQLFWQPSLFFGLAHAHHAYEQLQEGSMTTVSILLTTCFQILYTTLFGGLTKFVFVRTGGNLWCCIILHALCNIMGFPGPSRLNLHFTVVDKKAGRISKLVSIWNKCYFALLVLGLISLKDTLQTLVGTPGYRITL
Env fusion inh – blocks HIV Env-driven cell-cell fusion; HeLa-JRFL Env/CEM21 cell fusion, luciferase; inhibition, % at 12.3 µM; AID 651610; 360,000 tested, 1.1% active;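 active means mean replicate inhibition score of at least 50 and every replicate individually at or above 50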;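 further: 0% = plate neutral controls and 100% = maraviroc near 300 nM; one replicate is shown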
MT1-MMP act inh RFP – further read-out of MT1-MMP act inh, marked with its call; RFP signal change, %; measured here: RFP expression control read;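 0 = vehicle wells; hits needed this value within 50% of zero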
An asterisk follows results filed as active; & = joins results of further samples.

What do the screens show for `COc1ccc2[nH]c3c(c2c1)CCN1C(=O)C(CC(=O)NCCN2CCOCC2)C[C@H](C(=O)N2CCCCC2)[C@@]31C` (stereo partly specified)?
MT1-MMP act inh: 2; UUG fidelity: 8; Env fusion inh: -13; MT1-MMP act inh RFP: 4

Results for Cc1ccc2c(c1)N(C(=O)CCC(=O)NCc1ccccn1)CC(C)O2 (stereo unspecified) ?
CSC inhib: -15; PABP FP inh: -9; MT1-MMP act inh: 0; eIF4H inh: -8; UUG fidelity: -16; Rce1 inh: inactive; Env fusion inh: -12; MT1-MMP act inh RFP: 2

Results for CC(NC(=O)C1CCC(CNc2c(N3CCOCC3)c(=O)c2=O)CC1)c1ccccc1 (stereo unspecified) ?
CSC inhib: -9; PABP FP inh: 8; MT1-MMP act inh: 2; eIF4H inh: -6; UUG fidelity: 1; Rce1 inh: inactive; Env fusion inh: 7; MT1-MMP act inh RFP: 3

How did COc1ccc(C(=O)COC(=O)[C@H](C)NS(=O)(=O)c2ccc(NC(C)=O)cc2)cc1OC do in these assays?
MT1-MMP act inh: 5; UUG fidelity: -18; Env fusion inh: -5; MT1-MMP act inh RFP: 4

How did O=C(O)c1cccc(N2C(=O)/C(=C/c3ccc([N+](=O)[O-])cc3)C=C2c2ccccc2)c1 do in these assays?
CSC inhib: 38; PABP FP inh: 11; MT1-MMP act inh: -4; eIF4H inh: 7; UUG fidelity: 12; Rce1 inh: inactive; Env fusion inh: 24; MT1-MMP act inh RFP: -1

Results for O=C(Nc1ccc(NC(=S)NC(=O)c2ccco2)cc1)c1ccc(Br)cc1 ?
MT1-MMP act inh: 1; UUG fidelity: -10; Env fusion inh: 8; MT1-MMP act inh RFP: -1

Results for CC1(C)Cc2c(cnn2-c2cccc(F)c2)C(NC(=O)CSc2ccncc2)C1 (stereo unspecified) ?
CSC inhib: -14; PABP FP inh: 10; MT1-MMP act inh: -4; eIF4H inh: -7; UUG fidelity: -3; Rce1 inh: inactive; Env fusion inh: 5; MT1-MMP act inh RFP: -2

How did CCC(C)(C)n1nnnc1C(c1ccc(F)cc1)N1CCC(C(N)=O)CC1 (stereo unspecified) do in these assays?
CSC inhib: -10; PABP FP inh: 3; MT1-MMP act inh: -2; eIF4H inh: 6; Rce1 inh: inactive; Env fusion inh: 1; MT1-MMP act inh RFP: 2

How did CSc1ccccc1NC(=O)CN(C)Cc1c(O)ccc2ccccc12 do in these assays?
CSC inhib: -10; PABP FP inh: 13; MT1-MMP act inh: -2; eIF4H inh: -3; UUG fidelity: -17; Rce1 inh: inactive; Env fusion inh: -6; MT1-MMP act inh RFP: 2

How did Cc1ccc(OCCCCc2c(C)n[nH]c2C)cc1 do in these assays?
CSC inhib: 3; PABP FP inh: 8; MT1-MMP act inh: 3; eIF4H inh: -10; UUG fidelity: -4; Rce1 inh: inactive; Env fusion inh: 12; MT1-MMP act inh RFP: -21

How did CCN(CC)C(=O)C1=C(C)N(CCCOC)C(=O)C(CC(=O)NC(c2ccccc2)c2ccccc2)C1 (stereo unspecified) do in these assays?
MT1-MMP act inh: -1; UUG fidelity: -6; Env fusion inh: 6; MT1-MMP act inh RFP: 4

How did CCCOc1ccc(/C(O)=C2/C(=O)C(=O)N(c3ccccn3)C2c2ccc(OC)cc2)cc1C (stereo unspecified) do in these assays?
CSC inhib: 5; PABP FP inh: 1; MT1-MMP act inh: 0; eIF4H inh: -3; UUG fidelity: -4; Rce1 inh: inactive; Env fusion inh: 4; MT1-MMP act inh RFP: 3

Results for Cn1c(NC(=O)c2ccccc2)c(-c2cccs2)c(=O)c2ccccc21 ?
CSC inhib: -6; PABP FP inh: -3; MT1-MMP act inh: -5; eIF4H inh: -8; UUG fidelity: -12; Rce1 inh: inactive; Env fusion inh: 4; MT1-MMP act inh RFP: 2

Results for CN(C(=O)c1ccccc1Cl)C1CCCCC1 ?
CSC inhib: -10; PABP FP inh: 1; MT1-MMP act inh: 2; eIF4H inh: -1; UUG fidelity: -13; Rce1 inh: inactive; Env fusion inh: 3; MT1-MMP act inh RFP: -2

Results for COCCOC1CCN(C(=O)c2cc(COc3ccc(F)cc3F)on2)CC1 ?
CSC inhib: 2; PABP FP inh: -5; MT1-MMP act inh: -2; eIF4H inh: 2; UUG fidelity: 6; Rce1 inh: inactive; Env fusion inh: -46; MT1-MMP act inh RFP: 1

Results for CC(C)(CO)NS(=O)(=O)c1ccc2c(c1)oc(=O)c1cc(S(=O)(=O)NC(C)(C)CO)ccc12 ?
CSC inhib: -9; PABP FP inh: 6; MT1-MMP act inh: 6; eIF4H inh: 6; UUG fidelity: 7; MT1-MMP act inh RFP: 7

Results for COc1ccc(/C=N/NC(=O)c2cc(-c3ccc4c(c3)OCO4)n[nH]2)cc1OC ?
CSC inhib: 27; PABP FP inh: 37; MT1-MMP act inh: 10; eIF4H inh: 6; Rce1 inh: inactive; Env fusion inh: -103; MT1-MMP act inh RFP: 8

What do the screens show for `Cc1cc(C(=O)COC(=O)CC2Sc3ccccc3NC2=O)c(C)n1-c1ccccc1` (stereo unspecified)?
CSC inhib: -3; PABP FP inh: -12; MT1-MMP act inh: 1; eIF4H inh: 0; Env fusion inh: 15; MT1-MMP act inh RFP: 0

How did CC1(C)Cc2c(c(-c3ccco3)nc3sc4c(NCCO)ncnc4c23)CO1 do in these assays?
CSC inhib: -28; PABP FP inh: -9; MT1-MMP act inh: -1; eIF4H inh: -3; Rce1 inh: inactive; Env fusion inh: 15; MT1-MMP act inh RFP: -1

How did CC(C)(O)C#Cc1ccc(C(=O)N2CCC(C(N)=O)(N3CCCCC3)CC2)cc1 do in these assays?
CSC inhib: 0; PABP FP inh: -3; MT1-MMP act inh: -4; eIF4H inh: 7; UUG fidelity: 10; Rce1 inh: inactive; Env fusion inh: 16; MT1-MMP act inh RFP: -5

What do the screens show for `CC(=O)Nc1ccc(SCC(=O)NC(=O)c2ccc(S(=O)(=O)N(C)C)cc2)cc1`?
CSC inhib: -5; MT1-MMP act inh: -3; UUG fidelity: -13; Env fusion inh: -4; MT1-MMP act inh RFP: 2

Results for CC1CCN(C(=O)c2ccc(-n3cnnn3)cc2)CC1 ?
CSC inhib: -3; PABP FP inh: -8; MT1-MMP act inh: 0; eIF4H inh: -4; UUG fidelity: 6; Rce1 inh: inactive; MT1-MMP act inh RFP: 3

What do the screens show for `CN(C)/C=C1/NC(=S)NC1=O`?
CSC inhib: -1; PABP FP inh: -14; MT1-MMP act inh: 2; eIF4H inh: 2; Rce1 inh: inactive; Env fusion inh: -10; MT1-MMP act inh RFP: 5

What do the screens show for `N#Cc1c(C(F)(F)F)cc(-c2ccc(F)cc2)nc1SCC(=O)O`?
CSC inhib: -3; PABP FP inh: 13; MT1-MMP act inh: -6; eIF4H inh: 3; Rce1 inh: inactive; Env fusion inh: 14; MT1-MMP act inh RFP: -1

Results for COc1ccc2c(/C=N/Nc3ccc(C(=O)O)cc3)c[nH]c2c1 ?
CSC inhib: -11; PABP FP inh: 8; MT1-MMP act inh: -21; eIF4H inh: 21; UUG fidelity: -22; Rce1 inh: inactive; Env fusion inh: -10; MT1-MMP act inh RFP: 7

Results for CC(=O)c1ccc(NC(=O)C(C)N(C)CC(=O)Nc2ccc(N3CCOCC3)cc2)cc1 (stereo unspecified) ?
CSC inhib: -1; PABP FP inh: 6; MT1-MMP act inh: 1; eIF4H inh: 3; UUG fidelity: -4; Rce1 inh: inactive; Env fusion inh: 9; MT1-MMP act inh RFP: -2

How did CCOC(=O)Cc1csc(NC(=O)CSc2cc(Cl)ccc2Cl)n1 do in these assays?
CSC inhib: 6; PABP FP inh: -8; MT1-MMP act inh: -3; eIF4H inh: -6; Rce1 inh: inactive; Env fusion inh: -16; MT1-MMP act inh RFP: 3

How did Cc1onc(-c2ccccc2)c1C(=O)N1CCN(c2ccccn2)CC1 do in these assays?
CSC inhib: 1; PABP FP inh: -6; MT1-MMP act inh: -2; eIF4H inh: -1; UUG fidelity: -9; Rce1 inh: inactive; Env fusion inh: -16; MT1-MMP act inh RFP: -1

What do the screens show for `COc1ccc(C(=O)NCC(c2ccco2)N2CCc3ccccc32)cc1` (stereo unspecified)?
CSC inhib: -3; MT1-MMP act inh: 5; Rce1 inh: inactive; Env fusion inh: 38; MT1-MMP act inh RFP: -9

How did O=C(CCNS(=O)(=O)c1cccc2nsnc12)N1CCN(c2ccccn2)CC1 do in these assays?
CSC inhib: -18; PABP FP inh: 7; MT1-MMP act inh: -4; eIF4H inh: -2; Rce1 inh: inactive; MT1-MMP act inh RFP: 1

What do the screens show for `O=C(NC(Nc1ccccn1)C(Cl)(Cl)Cl)c1ccccc1` (stereo unspecified)?
CSC inhib: 1; PABP FP inh: -3; MT1-MMP act inh: 1; eIF4H inh: -11; UUG fidelity: 1; Rce1 inh: inactive; Env fusion inh: 2; MT1-MMP act inh RFP: 0

Results for COc1ccc(C2C(C(C)=O)=C(C)N=c3s/c(=C\c4ccco4)c(=O)n32)c(OC)c1 (stereo unspecified) ?
CSC inhib: -7; PABP FP inh: 44; MT1-MMP act inh: 0; eIF4H inh: 42; UUG fidelity: 1; Rce1 inh: inactive; Env fusion inh: -78; MT1-MMP act inh RFP: 9

Results for Cc1ccc(C)c(-n2c(CNc3ccc(F)cc3)nnc2SCC(N)=O)c1 ?
CSC inhib: 10; PABP FP inh: 5; MT1-MMP act inh: 2; eIF4H inh: -2; UUG fidelity: -18; Rce1 inh: inactive; MT1-MMP act inh RFP: 3

How did CCN(CC(=O)Nc1cc(Cl)ccc1C)C(=O)Cc1sc(C)nc1-c1ccc(F)cc1 do in these assays?
CSC inhib: -4; MT1-MMP act inh: -1; Rce1 inh: inactive; MT1-MMP act inh RFP: 0

Results for O=C1c2c(O)cc(O)cc2O[C@H](c2ccc(O)cc2)[C@H]1O ?
CSC inhib: -8; MT1-MMP act inh: -6; UUG fidelity: -15; Rce1 inh: inactive; MT1-MMP act inh RFP: -2

Results for COc1ccc(NC(=O)N(C)C[C@@H]2Oc3cc(C#CCN(C)C)ccc3S(=O)(=O)N([C@H](C)CO)C[C@H]2C)cc1 ?
MT1-MMP act inh: -2; UUG fidelity: 9&11; Env fusion inh: -6; MT1-MMP act inh RFP: 0

A run of entries of the results above:
What do the screens show for `CN(C)/C=C1/NC(=S)NC1=O`?
CSC inhib: -1; PABP FP inh: -14; MT1-MMP act inh: 2; eIF4H inh: 2; Rce1 inh: inactive; Env fusion inh: -10; MT1-MMP act inh RFP: 5

What do the screens show for `N#Cc1c(C(F)(F)F)cc(-c2ccc(F)cc2)nc1SCC(=O)O`?
CSC inhib: -3; PABP FP inh: 13; MT1-MMP act inh: -6; eIF4H inh: 3; Rce1 inh: inactive; Env fusion inh: 14; MT1-MMP act inh RFP: -1

Results for COc1ccc2c(/C=N/Nc3ccc(C(=O)O)cc3)c[nH]c2c1 ?
CSC inhib: -11; PABP FP inh: 8; MT1-MMP act inh: -21; eIF4H inh: 21; UUG fidelity: -22; Rce1 inh: inactive; Env fusion inh: -10; MT1-MMP act inh RFP: 7

Results for CC(=O)c1ccc(NC(=O)C(C)N(C)CC(=O)Nc2ccc(N3CCOCC3)cc2)cc1 (stereo unspecified) ?
CSC inhib: -1; PABP FP inh: 6; MT1-MMP act inh: 1; eIF4H inh: 3; UUG fidelity: -4; Rce1 inh: inactive; Env fusion inh: 9; MT1-MMP act inh RFP: -2

How did CCOC(=O)Cc1csc(NC(=O)CSc2cc(Cl)ccc2Cl)n1 do in these assays?
CSC inhib: 6; PABP FP inh: -8; MT1-MMP act inh: -3; eIF4H inh: -6; Rce1 inh: inactive; Env fusion inh: -16; MT1-MMP act inh RFP: 3

How did Cc1onc(-c2ccccc2)c1C(=O)N1CCN(c2ccccn2)CC1 do in these assays?
CSC inhib: 1; PABP FP inh: -6; MT1-MMP act inh: -2; eIF4H inh: -1; UUG fidelity: -9; Rce1 inh: inactive; Env fusion inh: -16; MT1-MMP act inh RFP: -1
